Rango complex inh: Rango-importin beta binding inhibition. Rango CFP/YFP FRET sensor + importin beta, 45 min. 340,000 tested, 0.031% active. Potency, µM (highest dose often 92.2 µM), for inactives: top-dose inhibition of complex formation. Q14974; active = rising FRET ratio curve, often small or poorly fitted; inconclusive = mostly compound fluorescence or quenching in the first reads; inactive = flat curves in all reads;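 also: potency is read from the fitted curve at half-maximal effect; 0% = DMSO wells and 100% = buffer wells lacking importin beta; nearly all actives have a fitted effect of over 15% in size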
Target sequence (Q14974 whole entry, looked up): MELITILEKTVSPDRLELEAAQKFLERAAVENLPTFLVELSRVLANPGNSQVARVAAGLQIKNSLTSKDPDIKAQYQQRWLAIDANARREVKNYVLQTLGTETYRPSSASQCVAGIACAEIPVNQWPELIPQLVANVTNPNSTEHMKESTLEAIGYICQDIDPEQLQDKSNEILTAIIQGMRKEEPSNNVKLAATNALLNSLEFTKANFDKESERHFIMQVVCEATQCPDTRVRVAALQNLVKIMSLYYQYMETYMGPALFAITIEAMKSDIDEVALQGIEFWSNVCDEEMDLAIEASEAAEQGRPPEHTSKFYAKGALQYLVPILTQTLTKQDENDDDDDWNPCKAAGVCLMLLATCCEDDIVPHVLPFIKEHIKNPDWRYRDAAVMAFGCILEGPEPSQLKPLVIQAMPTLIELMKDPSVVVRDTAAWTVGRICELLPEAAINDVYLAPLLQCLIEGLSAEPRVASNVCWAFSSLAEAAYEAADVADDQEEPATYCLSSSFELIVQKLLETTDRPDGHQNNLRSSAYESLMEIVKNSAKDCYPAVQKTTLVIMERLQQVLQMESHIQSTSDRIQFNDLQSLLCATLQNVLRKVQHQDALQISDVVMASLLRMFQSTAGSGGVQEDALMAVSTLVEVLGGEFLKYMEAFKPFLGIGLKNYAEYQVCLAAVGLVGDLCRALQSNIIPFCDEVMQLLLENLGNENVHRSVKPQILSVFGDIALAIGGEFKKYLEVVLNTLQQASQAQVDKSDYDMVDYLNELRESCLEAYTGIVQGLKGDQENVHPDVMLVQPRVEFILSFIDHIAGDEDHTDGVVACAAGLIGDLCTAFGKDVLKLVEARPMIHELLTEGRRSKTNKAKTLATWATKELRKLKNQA
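FRET biosensor Rango (snurportin 1 IBB between N-terminal EYFP and C-terminal Cerulean), 50 nM in PBS/1 mM DTT/0.02% Tween-20/0.1% BSA, preincubated 5 min RT with compound; 0.125 microM importin beta added, 45 min RT, CFP/YFP FRET ratio read.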
miR-21 FLuc: raises the signal of a miR-21 reporter; HeLa miR-21 FLuc reporter, luciferase, 48 h; Potency, µM (doses to about 38.3 µM), for the others: at the top dose reporter change, positive = more light; 340,000 tested, under 10 active; active = well fitted rising curve with a large enough effect; inconclusive = small, poorly fitted or top-dose-only effect; inactive = no such curve, though single readings can be large or run the other way;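 also: % of control where 0% means no effect; miR-21 action dims this reporter so a rising signal means less miR-21 action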
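HeLa miR-21-FLuc reporter line, endogenous miR-21; 2000 cells/well in DMEM/10% FBS; compound titration up to ~40uM final, 48 h, 37 degree Celsius; luciferase detection reagent, 15 min lysis, CCD luminescence.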
Rango release inh: inhibition of RanGTP-driven Rango-importin beta dissociation; O95149+P62826; Biochemical FRET Rango-importin beta, RanGTP-induced dissociation; Potency, µM (highest dose often 46.1 µM), without a hit: at the highest dose activity change, negative = inhibition; 340,000 tested, 0.071% active; AID 540253; active means falling FRET ratio curve, often poorly fitted, with flat reads before Ran was added; inconclusive means other falling curves, or compound fluorescence or quenching; inactive means flat or rising ratio curve;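 also: potency is read from the fitted curve at half-maximal effect; % of control where 0% means no effect; nearly all actives have a fitted effect of over 45% in size; -100% = wells without RanGTP and RCC1; the record marks most hits as doubtful in a second field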
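Recombinant Rango FRET biosensor (EYFP–snurportin 1 IBB–cerulean CFP10) at 0.1 uM premixed with 0.25 uM importin beta in PBS, 1 mM DTT, 0.02% Tween-20, 0.1% BSA. Compound added 5 min; RanGTP-RCC1 (0.6 uM Ran, 2 mM GTP, 0.2 uM RCC1) then triggers release, read at 45 min.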
GLA inh pH 4.5: alpha-galactosidase A (human) inhibition, pH 4.5. purified enzyme, 4-MU-alpha-Gal fluorescence, pH 4.5. activity change, negative = inhibition, % at 105 µM. 230,000 tested, under 10 active. AID 1467; inconclusive = small, poorly fitted or top-dose-only inhibition, or a rising curve; inactive = flat fitted curve, though single readings scatter; no compound was filed as active;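 also: 0% = full activity with enzyme and -100% = basal without enzyme; dose as in the result columns while the protocol names 77 µM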
The depositor's hits bear a star; ? = inconclusive; . = no result given; & = joins results of further samples.

SMILES	Rango complex inh	miR-21 FLuc	Rango release inh	GLA inh pH 4.5
Clc1ccc(OC2CCN(Cc3nc(CC4CC4)no3)CC2)cc1	-2.3%	4.7%	-6.4%	-2.6
CCCCn1c(CNC(=O)Cc2ccccc2)nc2ccccc21	-3.0%	-1.5%	9.9%	3.4
Cc1cccc(NC(=O)c2cc(S(=O)(=O)N3CCCCC3)ccc2Cl)n1	-0.3%	.	7.8%	.
Cc1ccccc1-c1nc2ccccc2[nH]1	-1.0%	-48.8%	0.3%	-2.7
COC(=O)c1cscc1NC(C)=O	5.0%	-9.1%	?	6.5
CS(=O)(=O)c1ccccc1C(=O)Nc1ccc(-c2nc3ccccc3o2)cc1	0.7%	-37.2%	17.5%	.
CCC(=O)n1nc(-c2ccc(Cl)cc2)nc1SC	2.1%	-58.2%	4.1%	-0.4
COC1CCN(C(=O)CC2C(=O)NCCN2CC(C)(C)C)CC1 (configuration not stated)	-0.3%	-0.4%	-5.3%	6.0
Cc1cc(C(=O)N2CCC(C)CC2)on1	-0.6%	-3.5%	19.8%	-2.9
Cc1ccccc1Oc1ccccc1N	3.5%	6.6%	-10.1%	-8.2
O=C(OCCCc1cc2ccccc2c(=O)o1)N1CCOCC1	-7.2%	.	4.6%	.
Cc1cc(C)cc(-c2nnc(SCc3ccc(C(=O)O)cc3)o2)c1	-0.3%	4.4%	?	1.8
Cc1cccc(NS(=O)(=O)c2ccc3[nH]c(=O)cc(C(=O)OC(C)C(=O)Nc4ccc([N+](=O)[O-])cc4)c3c2)c1 (configuration not stated)	-2.4%	-0.2%	-4.3%	?
CCC1CCc2sc(C(=O)NC3CCN(Cc4ccccc4)CC3)cc2C1 (configuration not stated)	6.3%	.	-10.5%	.
COc1ccc(/C=C/C(=O)Nc2cc(C)nn2-c2nc3ccccc3n2Cc2cccc([N+](=O)[O-])c2)cc1	-6.0%	3.5%	0.7%	4.9
C=CCNC(=O)c1c(CSc2ccc(Cl)cc2)noc1C(=O)NCCC	-0.2%	.	-7.9%	.
CC(C)NC(=O)N(C)C[C@H]1Oc2c(NS(=O)(=O)c3ccc(F)cc3)cccc2C(=O)N([C@H](C)CO)C[C@@H]1C	-1.0%	.	0.2%	.
O=C(CCS(=O)(=O)c1cc2c(cc1Cl)NC(=O)CO2)NCc1ccc(F)cc1	-6.1%	-1.8%	38.2%	.
COc1ccc(S(=O)(=O)N2CCCCC2)cc1-n1cnnn1	?	-9.8%	-14.5%	0.5
O=C(Cn1c(=O)n(Cc2ccco2)c(=O)c2c3c(sc21)CCCCC3)c1ccccc1	-1.0%	-14.4%	4.1%	2.6
CCOC(=O)C1CCN(C(=O)c2cc3c(ccc4ccccc43)o2)CC1	0.0%	-59.2%	18.2%	.
COc1ccc(-c2csc(N(Cc3ccco3)C(=O)c3cccs3)n2)cc1	1.8%	-28.7%	11.0%	2.7
CC1(C)CC(NC(=S)Nc2ccc([N+](=O)[O-])cc2)CC(C)(C)N1	3.4%	-13.1%	5.2%	-1.3
Cc1nnc(NC(=O)C2CCCN2C(=O)Nc2ccccc2)s1 (configuration not stated)	1.9%	3.7%	4.5%	.
CN(C)CCCN(C(=O)COc1ccc(Cl)cc1)c1nc2c(F)cccc2s1	-1.0%	-4.7%	0.1%	-6.9

The listing continues:
SMILES	Rango complex inh	miR-21 FLuc	Rango release inh	GLA inh pH 4.5
CC1C(=O)C(C)C(c2ccc(O)cc2)NC1c1ccc(O)cc1 (configuration not stated)	4.4%	-2.8%	4.2%	.
CCCN1Cc2cccc(C(=O)NCc3cccs3)c2C1=O	1.2%	-3.1%	0.1%	-7.6
COc1cc(/C=C2\SC(=S)N(CC(=O)O)C2=O)ccc1OC(=O)c1ccco1	-0.5%	12.7%	-13.9%	.
O=C(CCCCCN1C(=O)c2ccccc2C1=O)Nc1ccc(C(=O)O)cc1	-0.1%	-5.5%	14.8%	.
CCC(=O)Nc1ccc(C(=O)N/N=C/c2ccccc2[N+](=O)[O-])cc1	-2.2%	-16.3%	-9.2%	0.4
CN(C)S(=O)(=O)c1cccc(COC(=O)c2cnccn2)c1	-0.5%	1.1%	15.8%	.
COc1ccc(C)cc1NC(=O)CSc1nnnn1C1CCCC1	-0.9%	-1.3%	-5.0%	.
Cc1nn(CCc2nn[nH]n2)c2nc(-c3ccccc3)cc(C(F)(F)F)c12	1.5%	-11.4%	-2.6%	1.8
O=C(COC(=O)c1ccccc1O)NCCC1=CCCCC1	-0.9%	-24.9%	1.9%	-3.0
COc1cc(CCC(=O)NCCc2ccc(F)cc2)cc(OC)c1OC	-1.6%	.	-10.2%	.
CN(/N=C/c1ccc(Br)o1)C1=NS(=O)(=O)c2ccccc21	?	-0.6%	-25.3%	17.3
O=C(Nc1ccc(C(=O)N2CCOCC2)cc1)Nc1cccc2ccccc12	4.0%	-33.2%	-12.1%	12.2
CCOc1ccc(/C=C2/SC(=S)N(CCC(=O)Nc3ccc(C(=O)O)cc3)C2=O)cc1	-0.6%	-1.6%	4.8%	.
CCCc1cc(=O)[nH]c(SCc2ccc(F)cc2)n1	1.4%	-2.6%	9.7%	-2.9
Cc1cc(NC(=O)c2ccc(Cl)cc2)c(C(C)C)cc1O	-2.9%	-1.6%	-14.8%	3.4
COc1ccc(C(=O)N2CC3(C)CC2CC(C)(C)C3)cc1OC (configuration not stated)	0.3%	-7.2%	5.2%	8.4
O=C(CSc1nnc(C2CC2)n1-c1ccccc1)N1CCCC1	0.1%	.	-9.2%	.
O=C(Nc1ccc2oc(-c3ccncc3)nc2c1)c1ccc2c(c1)OCCO2	5.3%	-5.3%	0.7%	1.8
O=c1[nH]c2ccccc2cc1CN(Cc1ccco1)S(=O)(=O)c1ccc(F)cc1	-0.7%	18.2%	-0.6%	.
Cc1ccnc(NC(=O)CNC(=O)C23CC4CC(CC(C4)C2)C3)c1	1.6%	.	25.4%	.
CCN(CC)C(=O)Cn1cc([N+](=O)[O-])cc1[N+](=O)[O-]	-1.3%	.	-10.1%	.
Cc1ccc(OCC(=O)Nc2ccccc2[N+](=O)[O-])c(Br)c1	0.6%	-72.0%	-5.0%	-7.5
CCC(C)NC(=O)/C=C/c1ccc(S(=O)(=O)NCc2ccco2)cc1 (configuration not stated)	-0.1%	0.5%	8.0%	7.8
CCN(Cc1ccccc1)C(=O)Cn1c(C(C)O)nc2ccccc21 (configuration not stated)	-1.9%	4.7%	-18.1%	0.8
O=C(CCCCCn1nnc2ccccc2c1=O)N[C@H](C(=O)O)c1ccccc1	-3.1%	-2.5%	9.9%	-1.9

(list continues)
SMILES	Rango complex inh	miR-21 FLuc	Rango release inh	GLA inh pH 4.5
Cc1ccc(NC(=O)CCC(=O)Nc2nnc(C3CCCCC3)s2)cc1	-1.1%	-5.5%	-7.0%	.
COCCN1CN=C(Nc2nc3ccccc3s2)NC1	1.8%	-20.5%	2.6%	4.2
CC1=C(C(N)=O)C(c2cccc(O)c2)n2nc(CCCO)nc2N1 (configuration not stated)	-3.8%	2.4%	26.9%	-11.2
COc1cccc(-c2nc3ccccc3c(=O)n2NC(=O)c2cccnc2Cl)c1	0.0%	-11.3%	0.4%	-4.2
COc1ccccc1C1N(c2ccc(F)cc2)C(=O)C2CCCN21 (configuration not stated)	-2.0%	-11.4%	-2.5%	5.3
CC(C)Cc1nc2oc3c(NCCCN4CCOCC4)ncnc3c2c2c1CCC2	-0.1%	-10.1%	-7.4%	-4.3
O=C(C1CCCCN1S(=O)(=O)c1ccccc1)N1CCN(Cc2ccccc2)CC1 (configuration not stated)	0.2%	0.4%	2.4%	-0.6
CCn1c(SCC(=O)c2ccccc2)nnc1-c1ccoc1C	-3.3%	-23.7%	1.7%	14.1
CCOC(=O)CSC1=C(C#N)C(c2ccc3c(c2)OCO3)CC(=O)N1 (configuration not stated)	5.1%	16.8%	-0.1%	16.6
COc1ccc2c(c1)C(=NNC(=O)c1ccccn1)c1cc(OC)ccc1-2	3.2%	1.4%	35.1%	1.6
Cc1ccc2nc(/C(C#N)=C\c3cc(C)n(-c4cccc([N+](=O)[O-])c4)c3C)[nH]c2c1	-2.8%	9.4%	-3.6%	-2.4
O=C(NC1CCN(C(=O)Nc2cccc(F)c2)CC1)c1ccco1	1.1%	10.3%	4.0%	.
CCSc1nnc(NC(=O)c2ccc3nc[nH]c3c2)s1	-0.2%	.	-7.2%	.
COc1ccccc1NC(=O)COC(=O)C1CC2C=CC1C2 (configuration not stated)	-1.1%	-3.6%	0.4%	5.7
CCN(Cc1ccccc1)C(=O)c1ccc(CS(=O)c2ccccc2C)o1 (configuration not stated)	0.4%	11.3%	-0.8%	.
COc1ccc(NC(=O)COc2ccc(N(C)S(=O)(=O)c3ccc(C)cc3)cc2)cc1	-0.1%	3.4%	11.5%	2.1
CCN(CC)CC(=O)NC1CC(C)(C)Cc2c1cnn2-c1ccc(F)cc1 (configuration not stated)	-1.3%	-1.4%	-8.9%	.
COc1ccc(C(CC(=O)NCC(OC)OC)NS(=O)(=O)c2ccc(Cl)cc2)cc1 (configuration not stated)	-1.1%	0.2%	1.3%	-1.5
CNc1oc(Cc2ccccc2)nc1S(=O)(=O)c1ccc(Cl)cc1	-1.1%	-1.8%	0.5%	-5.3
Cc1ccc2c(c1)c(-c1csc(N)n1)c(C)n2C	-0.4%	-7.9%	-4.6%	.
CCN1C(=O)N(CC)C(O)(c2ccccc2)C1(O)c1ccccc1 (configuration not stated)	1.2%	-1.2%	16.3%	-0.5
CCOc1c2ccoc2nc2c(OC)c(OC)ccc12	0.9%	-41.5%	-13.0%	-1.0
CC(OC(=O)c1ccncc1)C(=O)Nc1cccc(Cl)c1 (configuration not stated)	-1.7%	-1.7%	-0.4%	6.2
COc1cc(OC)cc(N2CCN(S(=O)(=O)c3ccc(-n4cnnn4)cc3)CC2)c1	7.3%	1.0%&-0.5%	17.7%	.
CC(=O)c1c(C)nc(-c2ccccc2)nc1N	-0.8%	-33.2%	14.1%	1.0

The list continues:
SMILES	Rango complex inh	miR-21 FLuc	Rango release inh	GLA inh pH 4.5
CCC(=O)c1ccc(OCC(O)CN2CCN(c3ccc(F)cc3)CC2)cc1 (configuration not stated)	3.8%	-0.3%	16.3%	-1.8
O=C(OCc1ccccc1)N1CCC2CC1c1cc(N3CCCCC3)ccc12 (configuration not stated)	0.5%	.	-1.6%	.
Nc1nonc1C(=O)N/N=C/c1ccc(Br)o1	2.7%	-5.4%	2.2%	-5.0
O=C(Cn1cncn1)NCCC(c1ccccc1)c1ccccc1	-3.8%	1.5%	4.1%	-5.3
Cc1cc(Nc2nn(C)c(N)c2C#N)ccc1F	0.7%	-17.3%	-10.0%	-1.0
O=C(CN(C(=O)c1csnn1)c1ccc(F)c(Cl)c1)NCc1ccccc1	-2.9%	-2.0%	-0.8%	.
O=C(O)CCCC(=O)Nc1nncs1	1.7%	-1.6%	-0.6%	4.1
Cc1ccc(CC(=O)NC2CCN(Cc3ccccc3)CC2)cc1	1.4%	-1.8%	-19.3%	.
Cc1c(C(=O)N2CCCCCC2)nnn1-c1nonc1N	-2.9%	-6.7%	-28.3%	-17.8
CS(=O)(=O)N(CC(=O)N1CCc2ccccc2C1)c1ccccc1Br	-0.4%	-6.5%	?	.

Screening data (PubChem BioAssay)

These rows are one share of the data; the hit share may differ from the screen's.
